RE007 growth inh: less growth of the S. pombe RE007 Vpr strain. 360,000 compounds, 0.21% hits. S. pombe RE007 Vpr strain, BacTiter-Glo ATP luminescence, 24 h; control for the full effect not named in the record. AID 651644. Potency, µM (doses to about 92.2 µM), for inactives: top-dose activity change, negative = less growth; active = well fitted falling curve with a large enough effect; inconclusive = small, poorly fitted or top-dose-only effect; inactive = no such curve, though single readings can be large or run the other way;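 further: on the % scale 0 is the no-effect control and ±100 the full control effect; nearly all actives have a fitted effect of over 50% in size; the assay follows cell death caused by Vpr and the record does not say whether a fall means rescue or toxicity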
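Fission yeast strain RE007, carrying one chromosomally integrated HIV-1 vpr copy, was seeded at OD 0.01 in PMG+AL medium with 23 nL pinned compound. After 24 h at 30 °C and 99% humidity, viability was read by BacTiter-Glo luminescence.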
Cruzain Triton: cruzain (T. cruzi) inhibition with detergent; P25779; purified cruzain, Z-FR-AMC fluorescence, 0.01% Triton; Potency, µM, inactives show max response, negative = inhibition, usual class: inhibitors; 200,000 compounds, 0.43% hits; active means well fitted curve in the direction sought with a large enough effect; inconclusive means small, poorly fitted or top-dose-only effect, or another doubt; inactive means no such curve, though single readings can be large; an effect the other way counts as inactive or inconclusive;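 further: plate controls were neutral wells for no effect and buffer without enzyme for full effect; nearly all actives have a fitted effect of over 40% in size; top concentration of the series not given in the record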
Target sequence (P25779 123-467 limits assumed): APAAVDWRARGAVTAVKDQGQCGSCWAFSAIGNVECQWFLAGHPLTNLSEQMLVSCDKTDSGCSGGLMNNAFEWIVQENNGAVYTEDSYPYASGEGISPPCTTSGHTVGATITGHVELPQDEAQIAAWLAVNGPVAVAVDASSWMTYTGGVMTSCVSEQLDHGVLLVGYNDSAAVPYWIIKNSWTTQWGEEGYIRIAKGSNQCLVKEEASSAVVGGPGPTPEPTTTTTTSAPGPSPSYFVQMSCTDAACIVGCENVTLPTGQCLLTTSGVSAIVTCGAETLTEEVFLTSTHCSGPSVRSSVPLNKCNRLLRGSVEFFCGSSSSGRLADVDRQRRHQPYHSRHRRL
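Purified cruzain (1.5 nM final) was preincubated with compounds for 15 min at room temperature in 100 mM sodium acetate pH 5.5, 5 mM DTT, 0.01% Triton X-100. Reaction started with 2 uM Z-FR-AMC; AMC fluorescence change over 60 s gave activity.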
SARS PLP yeast: blocks SARS-CoV papain-like protease in a yeast assay | AID 485353 | Potency, µM (top dose mostly 32.9 µM), for the others: at the highest dose activity, positive = growth rescue | S. cerevisiae expressing SARS-CoV PLpro, growth rescue; control for the full effect not named in the record | 330,000 compounds, 0.19% hits; further: 0% is about no effect; nearly all actives have a fitted effect of over 55% in size; growth read by luminescence after 48 h
MARV entry inh: inhibitors of Marburg virus binding or cell entry; Potency, µM (doses to about 37.8 µM), inactives show at the highest dose activity change, negative = inhibition, actives largely listed as inhibitors; Marburg virus pseudotyped entry inhibition, cell reporter; control for the full effect not named in the record; about a third of the inactives were read at about 46 µM; 300,000 compounds, 1.8% hits; active = well fitted inhibition curve with a large enough effect; inconclusive = small, poorly fitted or top-dose-only effect, or effect the other way; inactive = flat fitted curve, though single readings scatter; tested in HEK293 cells; about a fifth of its hits are not listed in these tables; further: on the % scale 0 is the no-effect control and ±100 the full control effect; luciferase read-out
StopGo reporter: FMDV 2A StopGo reporter, luciferase signal; Potency, µM (doses to about 57.9 µM), for inactives: at the top dose signal change, negative = less light; human cells with a luciferase reporter of 2A StopGo recoding; control for the full effect not named in the record; 410,000 compounds, 1.2% hits; active = well fitted falling curve with a large enough effect; inconclusive = small, poorly fitted or top-dose-only effect; inactive = no such curve, though single readings can be large or run the other way; tested in HEK293T cells; further: on the % scale 0 is the no-effect control and ±100 the full control effect; nearly all actives have a fitted effect of over 45% in size; luciferase light after 4 h
Lassa entry inh: blocks Lassa virus binding to or entry into cells; Lassa virus pseudotype entry inhibition, cell reporter; control for the full effect not named in the record; Potency, µM (series often up to 37.9 µM), for the others: at the highest dose activity change, negative = inhibition, usual class: inhibitors; 300,000 compounds, 1.2% hits; AID 540256; active means well fitted inhibition curve with a large enough effect; inconclusive means small, poorly fitted or top-dose-only effect, or effect the other way; inactive means flat fitted curve, though single readings scatter; tested in HEK293 cells; further: on the % scale 0 is the no-effect control and ±100 the full control effect; nearly all actives have a fitted effect of over 50% in size; luciferase read-out
NS1 inh: influenza NS1 inhibition | S. cerevisiae slowed by influenza A NS1, growth recovery by OD600 | 270,000 compounds, 0.4% hits | Potency, µM (titrated, usually from 46.1 µM), inactives show top-dose activity, positive = more growth; further: actives are rising curves; nearly all actives have a fitted effect of over 50% in size
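Growth recovery, yeast-based: influenza A NS1 expressed in S. cerevisiae causes slow growth, and suppressors are detected by OD600. The parent strain without NS1 is used as positive control.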
Cruzain noTriton: inhibitors of Trypanosoma cruzi cruzain without detergent; P25779; purified cruzain, Z-FR-AMC fluorescence, no detergent; Potency, µM, for the others: max response, negative = inhibition, usual class: inhibitors; 200,000 compounds, 2.3% hits; active means well fitted curve in the direction sought with a large enough effect; inconclusive means small, poorly fitted or top-dose-only effect, or another doubt; inactive means no such curve, though single readings can be large; an effect the other way counts as inactive or inconclusive;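 further: plate controls were enzyme without inhibitor for no effect and buffer without enzyme for full effect; nearly all actives have a fitted effect of over 40% in size; top concentration of the series not given in the record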
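Detergent-free condition (0.00005% Triton X-100) in acetate buffer pH 5.5 with DTT. 1.5 nM enzyme and compound were pre-mixed 15 min, then 2 uM Z-FR-AMC substrate added; reaction progress from fluorescence change between first and third reads (60 s).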
* hit, by the source's call; ? = inconclusive; . = no result given; & = joins results of further samples; [ ] = dose if it differs, or a comment. Unless noted, the call rests on the fitted dose curve; in most records, active means well fitted rising curve with a large enough effect; inconclusive means small, poorly fitted or top-dose-only effect; inactive means no such curve, though single readings can be large or run the other way. Potency means the concentration at half of the fitted maximal effect.

SMILES	RE007 growth inh	Cruzain Triton	SARS PLP yeast	MARV entry inh	StopGo reporter	Lassa entry inh	NS1 inh	Cruzain noTriton
O=[N+]([O-])c1ccc(C2CN=C(Nc3ccccc3)S2)cc1 (configuration not stated)	-5%	.	10%	0%[46.1 µM]	0%	-1%[46.1 µM]	.	.
CCOc1cc(C(=O)NC(C)c2ccncc2)cc(OCC)c1OCC (configuration not stated)	4%	0.0%	1%	-5%	6%	-12%	5%	15%
CCOc1c2ccc(C(=O)NC3CCCc4ccccc43)cc2nn1CC (configuration not stated)	14%	-13%	-3%	.	26%	.	-6%	6%
O=[N+]([O-])c1ccc(N2CCc3ccccc3C2)cc1	-27%	.	-4%	.	34%[activator]	.	-74%	.
COC(=O)c1sccc1NC(=O)c1ccc(OC)cc1	-16%	-2.0%	5%	-33%	29%	3%	-9%	5%
CCOc1cc(C(=O)OCc2cccc(OC)c2OC)ccc1OCC(=O)N1CCOCC1	13%	.	1%	3%[46.1 µM]	-9%	?	.	.
CCOCCCNC(=O)Cn1cc2c(n1)CCCCC2	5%	6.4%	-8%	.	-14%	.	4%	4%
COc1cc(/C=N\NC(=O)c2ccccc2F)ccc1Oc1ccc([N+](=O)[O-])cn1	-2%	.	-1%	-13%	?	-3%	-1%	.
CCn1c(CCNS(=O)(=O)c2ccccc2Br)nnc1SC	5%	.	0%	2%[46.1 µM]	9%	.	-1%	.
Cc1cc(NC(=O)C(C)SCC(=O)OCc2ccc([N+](=O)[O-])cc2)no1 (configuration not stated)	7%	.	2%	20%	69%[activator]	3%	.	.
CCn1c(SCC(N)=O)nc2ccccc2c1=O	-17%	5.9%	1%	0%	.	?	-2%	-10%
O=C(NNC(=S)Nc1cccc(C(F)(F)F)c1)c1ccc(Cl)cc1Cl	2%	0.3%	-15%	?	-27%	0%	-45%	0%
Cc1ccc(S(=O)(=O)c2nnn3c2nc(N2CCC(C(N)=O)CC2)c2cc(Cl)ccc23)cc1C	.	-18%	.	13%[46.1 µM]	?	.	.	?
CCNS(=O)(=O)c1ccc(NC(=O)c2c(-c3ccccc3)noc2C)cc1	-5%	.	-1%	3%[46.1 µM]	-1%	-6%	10%	.
Nc1nc(NCC2CCCO2)nc(Nc2cccc(Cl)c2)c1[N+](=O)[O-] (configuration not stated)	10%	.	-2%	-16%[46.1 µM]	-15%	-24%	1%	.
CSc1nnc2c(n1)OC(c1ccccn1)N(C(C)=O)c1ccccc1-2 (configuration not stated)	-3%	.	0%	?	-10%	15%	3%	.
CCCn1ccc2c(OCC(=O)Nc3ccccc3OCC)cccc2c1=O	.	-8.0%	.	.	?	?	.	15%
C=CCN(CC=C)S(=O)(=O)c1ccc(NC(=S)NC(=O)C2CC2)cc1	3%	.	-9%	?	21%	?	2%	.
Cc1n[nH]c(=S)c2nn(-c3ccccc3F)c(C)c12	11%	-3.9%	?	-3%	-2%	9%	?	-11%
CCOP(=O)(C#CC(C)(C)C)C(O)(c1ccccc1)C(F)(F)F (configuration not stated)	-6%	1.3%	2%	0%	?	3%	2%	8%
Cc1ccc(SCC(=O)Nc2nnc(-c3ccco3)o2)cc1	-8%	.	-10%	1%[46.1 µM]	1%	4%	.	.
COc1ccccc1N1CCN(CC(=O)Nc2ccc(-n3cnnn3)cc2)CC1	5%	.	-1%	-4%[46.1 µM]	-21%	.	.	.
O=C(OCc1cc(=O)n2nc(-c3cccs3)sc2n1)c1ccccc1Br	.	-1.5%	.	.	0%	2%[46.1 µM]	.	5%
CCN1CCN(Cc2ccc(NC(=O)c3ccc(C)c(NC(=O)c4ccc5n[nH]nc5c4)c3)cc2C(F)(F)F)CC1	-7%	.	-4%	.	0%	.	-3%	.
COc1ccccc1CNC(=O)CN1C(=O)c2ccc([N+](=O)[O-])cc2C1=O	7%	.	4%	-12%[46.1 µM]	10%	-13%[46.1 µM]	16%	.
CCOc1ccc(S(=O)(=O)n2cc(F)c(=O)[nH]c2=O)cc1	-29%	.	-4%	-9%[46.1 µM]	-10%	18%[46.1 µM]	-7%	.
CC(C(N)=O)N1c2cccc3cccc(c23)S1(=O)=O (configuration not stated)	2%	.	-1%	0%[46.1 µM]	-24%	6%	6%	.
Cc1cccc(OCc2nnc(SCC(=O)N3c4ccccc4CCc4ccccc43)o2)c1	1%	.	0%	?	-13%	?	13µM*	.
Cc1nnc(SCC(=O)Nc2ccc(Br)cc2)[nH]c1=O	.	0.5%	.	?	-3%	30%[46.1 µM]	.	-6%
CC(C)N(Cc1ccccc1)C(=O)COC(=O)c1cnccn1	0%	.	0%	-19%[46.1 µM]	-7%	6%[46.1 µM]	-4%	.
COc1ccc(S(=O)(=O)NCCSCc2ccco2)cc1Cl	6%	0.6%	2%	?	1%	?	2%	-10%
O=C(CN1C(=O)COc2ccccc21)NCCCN1CCN(c2ccccc2F)CC1	8%	.	1%	.	-18%	.	-3%	.
CCCc1ccc(C(=O)CCC(=O)NNC(=O)c2ccncc2)cc1	-3%	.	5%	.	-8%	.	-4%	.
C(=N\c1ncnc2sccc12)/NOCc1ccccc1	-26%	-1.3%	-30%	-19%	0%	-15%	-6%	-3%
CN(C)c1ccc(/C=N\NC(=O)CC#N)cc1	5%	.	1%	-17%[46.1 µM]	9%	-24%[46.1 µM]	.	.
Nn1c(=O)c2ccccc2n2c(SCc3ccc(C(F)(F)F)cc3)nnc12	11%	-3.4%	4%	-2%	-24%	-15%	0%	-1%
COc1ccc(OC)c(S(=O)(=O)Nc2ccc(C)c(C)c2)c1	5%	-1.4%	6%	?	77%[activator]	-5%	-5%	-5%
CC(=O)Nc1ccc(N2C(=O)c3ccc(S(=O)(=O)c4ccc(C(=O)O)cc4)cc3C2=O)cc1	1%	.	-4%	26%	-8%	?	12%	.
CC1=NOC(=O)/C1=C\c1ccc(-c2cccc(Cl)c2)o1	?	-22%	-10%	?	40µM*	?	-28%	?
COc1ccc(-c2nc(CN3CCC(C(=O)N4CCOCC4)CC3)c(C)o2)c(OC)c1	4%	.	-4%	18%	-1%	-1%	11%	.
CC1CCCCC1NC(=S)NC(=O)c1ccccc1Cl (configuration not stated)	-11%	.	?	?	-7%	-21%	.	.
Cc1nc2c(c(C)nn2-c2ccccc2)c(C)c1CCC(=O)Nc1ccccc1	.	-2.1%	.	13%[46.1 µM]	-8%	19%[46.1 µM]	.	-10%
CCN(CC)c1ccc(/C=N/N2CCN(Cc3ccccc3)CC2)cc1	-9%	.	2%	1%[46.1 µM]	2%	2%[46.1 µM]	.	.
O=C(COc1ccccc1)N1CCN(C(=O)c2cccs2)CC1	-9%	4.4%	8%	-1%[46.1 µM]	-11%	19%	-4%	-1%
CC1CCN(c2ccccc2NC(=O)c2ccc(N3CCOCC3)c([N+](=O)[O-])c2)CC1	0%	6.4%	-5%	?	.	?	4%	8%
COc1ccccc1NS(=O)(=O)c1cccc(C(=O)NCC(c2ccco2)N2CCCCC2)c1 (configuration not stated)	2%	.	2%	-24%	-20%	-1%	.	.
CCn1c(COC(=O)CNC(=O)c2ccccc2F)nc2cc(S(=O)(=O)N(C)C)ccc21	-21%	.	-5%	12%	-25%	0%	.	.
CCOc1ccccc1C(=O)Nc1cccc(-c2ccc(N3CCOCC3)nn2)c1	-6%	.	-19%	?	67%[activator]	?	.	.
S=C(Nc1ccccc1Cl)N1CCN(c2ccccn2)CC1	1%	.	-2%	-18%	-13%	?	1%	.
COc1ccc(NCc2nnc(SCCN3CCCCC3)n2-c2ccc(C)cc2)cc1	3%	.	0%	.	1%	.	2%	.
COc1cc(NC(=O)CCNC(=O)Cn2cnc3ccccc3c2=O)cc(OC)c1OC	-2%	2.9%	-15%	11%[46.1 µM]	-7%&22%	-14%[46.1 µM]	1%	-3%
C=CCOc1ccc(/C=N/NC(C)=O)cc1OCC	-16%	.	1%	-1%[46.1 µM]	9%	0%[46.1 µM]	9%	.
CCCOc1ccc(N2C(=O)CC(NCCNc3ccc([N+](=O)[O-])cn3)C2=O)cc1 (configuration not stated)	?	.	-4%	26%	-8%	3%	-4%	.
O=C1CCCC2=C1C(c1ccc(Cl)cc1)N1C(=O)CCSC1=N2 (configuration not stated)	26%	-11%	11%	-12%	?	-2%	13%	-8%
C=Cc1ccc(Cn2c(C)c(CNCc3cccc(Br)c3)c(C(=O)O)c2C)cc1	.	-3.5%	.	10%[46.1 µM]	-18%	-3%[46.1 µM]	.	-13%
COc1ccc(-n2ncc3c2CC(C)(C)CC3NC(=O)c2oc(C)cc2C)cc1 (configuration not stated)	9%	.	13%	?	-11%	-7%[46.1 µM]	9%	.
O=C(CCCCC(=O)Sc1ccccc1)Sc1ccccc1	?	.	.	?	-29%	-6%	.	.
Oc1c(Br)cc(Br)cc1C=Nc1ccc2[nH]ncc2c1	?	.	-2%	.	-8%	.	-90%	.
CC(C)(C)C1c2[nH]c3ccccc3c2CCN1CCCn1cccn1 (configuration not stated)	-6%	.	1%	?	-12%	-23%[46.1 µM]	3%	.
COc1ccc(N2CCN(C(=O)c3c(-c4c(F)cccc4Cl)noc3C)CC2)cc1	-3%	.	-2%	-6%	-9%	-2%	-11%	.

The results go on:
SMILES	RE007 growth inh	Cruzain Triton	SARS PLP yeast	MARV entry inh	StopGo reporter	Lassa entry inh	NS1 inh	Cruzain noTriton
COc1ccc(-c2csc(NC(=O)c3cccc(S(=O)(=O)N4CCN(C)CC4)c3)n2)cc1	-6%[3.69 µM]	-3.1%	-2%	?	?	?	?	-5%
O=C(Nc1ccc2c(c1)OCO2)c1ccc(COc2ccc3c(c2)CCC3)o1	-15%	-3.8%	-15%	22%	28%	1%	1%	?
COC(=O)c1cn(CC(=O)N2C(C)CCCC2C)c2ccccc12 (configuration not stated)	-3%	-2.9%	11%	-12%	-28%	-19%	-6%	0%
CCCc1nnc(SCC(=O)Nc2ccccc2Cl)n1CC1CCCO1 (configuration not stated)	9%	.	2%	9%[46.1 µM]	3%	14%	2%	.
